STK33 inh – inhibitors of human STK33 kinase; Q9BYT3; purified STK33, MBP phosphorylation, ADP-Glo luminescence; inhibition, % at 10 µM; actives 0.073% (n = 320,000); AID 2661;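 active means inhibition at or above 25%, using the most active replicate where run in duplicate; inactive means inhibition below 25%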
Target sequence (Q9BYT3 whole entry, looked up): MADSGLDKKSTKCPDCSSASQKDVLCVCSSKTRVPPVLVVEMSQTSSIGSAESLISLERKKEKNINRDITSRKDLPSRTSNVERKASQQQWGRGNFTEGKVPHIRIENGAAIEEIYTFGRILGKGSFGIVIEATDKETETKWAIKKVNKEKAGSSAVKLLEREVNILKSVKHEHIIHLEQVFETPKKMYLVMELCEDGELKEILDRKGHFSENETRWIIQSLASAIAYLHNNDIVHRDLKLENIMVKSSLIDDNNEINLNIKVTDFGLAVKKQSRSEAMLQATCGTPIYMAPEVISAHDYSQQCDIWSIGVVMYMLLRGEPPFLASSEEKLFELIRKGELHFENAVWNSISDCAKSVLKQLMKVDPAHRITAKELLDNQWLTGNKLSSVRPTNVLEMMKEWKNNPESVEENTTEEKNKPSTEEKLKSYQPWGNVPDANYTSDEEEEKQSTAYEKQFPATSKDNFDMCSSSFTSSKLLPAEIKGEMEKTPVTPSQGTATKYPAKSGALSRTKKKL
Active calls of the source: *. An excerpt, and most or all hits are left out here.

STK33 inh | Molecule
1.2 | NC(=O)c1nn(CC(=O)Nc2ccc3c(c2)OCO3)cc1[N+](=O)[O-]
0.5 | CC(C)n1nc(C(=O)NCCc2ccc(S(N)(=O)=O)cc2)c2ccccc2c1=O
-1.3 | O=C(Cc1c(C(=O)O)[nH]c2ccccc12)NC1CCCC1
-0.7 | N#Cc1cc(C(=O)Cc2ccccc2)c[nH]1
-1.6 | Clc1cccc(-c2ccc(/C=N/n3cnnc3)o2)c1
-1.0 | CCN(CC)C(=O)Cc1c(O)c2ccccc2[nH]c1=O
0.2 | CCOc1ccc(NC(=S)N(CCOC)C2CCN(C(C)C)CC2)cc1
-0.3 | C=CCc1ccc(OCCCCOc2ccc(C(=O)O)cc2)c(OC)c1
-0.3 | CCN(CC)C(CNS(=O)(=O)c1ccc(Cl)cc1)c1ccccc1 (configuration not stated)
-3.8 | CN1CCN(CCCNC(=O)CN2C(=O)COc3ccccc32)CC1
-0.6 | O=C(NC(=S)Nc1cc(S(=O)(=O)N2CCOCC2)ccc1N1CCOCC1)c1ccco1
-1.3 | Cc1ccc(NC(=S)NC(=O)c2ccc(Br)o2)c(C)c1

Later entries.
STK33 inh | Molecule
0.2 | Cc1noc2ncnc(Sc3ccccc3Cl)c12
-0.3 | Cc1cccc(C(=O)N2CCN(CCNC(=O)C(=O)Nc3ccc(F)cc3)CC2)c1
-1.0 | CCN(CC)C(=O)CC(c1ccc(N(C)C)cc1)c1c(O)cc(OC)cc1OC (configuration not stated)
0.0 | O=C(Cn1c(NCCO)nc2ccccc21)c1ccc(Cl)cc1Cl
-1.4 | Cn1c2ccccc2n2c(=O)c(=O)n(CC(=O)c3ccc(F)cc3)nc12
-0.8 | O=P(CCNCc1ccco1)(c1ccccc1)c1ccccc1
4.1 | COc1cc(CNc2ccc3c(c2)OCCO3)ccc1OCC(N)=O
0.0 | Cc1ccc(S(=O)(=O)N(CCO)Cc2ccccc2)cc1
-1.6 | Cn1c(-c2ccc(Br)cc2)cnc1NCc1cccnc1
-1.3 | CN(Cc1ccccc1)C(=O)c1ccccc1NC(=O)C1CC1
1.5 | Cc1nc2ccc(S(=O)(=O)N(C)CC(=O)NCCc3ccccc3)cc2s1
-0.8 | CC(C)C(NC(=O)c1ccc(C(C)(C)C)cc1)C(=O)N1CCCC1 (configuration not stated)

Pulled one by one from above:
STK33 inh | Molecule
0.0 | Cc1ccc(S(=O)(=O)N(CCO)Cc2ccccc2)cc1
0.0 | O=C(Cn1c(NCCO)nc2ccccc21)c1ccc(Cl)cc1Cl

Next section.
STK33 inh | Molecule
0.0 | O=C(Nc1cccnc1Cl)c1cc2c(s1)-c1ccccc1OC2
-0.5 | CCOC(=O)c1c(NC(=O)Cn2nc(C(=O)O)c3ccccc3c2=O)sc(C)c1C
-0.8 | COC(=O)C(C)(C)ONC(=O)Nc1ccccc1[N+](=O)[O-]
-0.7 | CCOc1ccc(NC(=O)NC2CCS(=O)(=O)C2)cc1 (configuration not stated)
-2.5 | OC(c1cccnc1)c1cccs1 (configuration not stated)
2.1 | O=C1CCCc2[nH]nc(-c3cccnc3)c21
-0.1 | CCSc1oc(-c2ccco2)nc1S(=O)(=O)c1ccc(C)cc1
-1.9 | CCCCN(CCCC)C(=S)NC(=O)c1ccccc1Cl
-0.3 | O=c1c2ccccc2nc(/C=C/c2ccc(Br)cc2)n1CCO
-2.1 | COC(=O)CN(c1ccccn1)S(=O)(=O)c1ccccc1
-0.5 | COCOc1cc(O)c(C(=O)/C=C/c2ccccc2)c(OCOC)c1
-1.1 | COc1ccc(C(=O)CN2C(=O)NC(C)(c3ccc(C)cc3)C2=O)cc1OC (configuration not stated)

Next section.
STK33 inh | Molecule
1.3 | COc1ccc(C2(C)NC(=O)NC2=O)cc1OC (configuration not stated)
0.2 | Cc1ccc(CNc2oc(-c3cccs3)nc2C#N)cc1
-0.9 | COc1ccc(NC(=O)CCCn2cnc3ccccc3c2=O)cc1
-0.8 | O=C(CSC1=NCCS1)Nc1nc2c(s1)CCCC2
2.6 | O=C(Nc1ccnn1C1CCN(CC2CC=CCC2)CC1)c1ccccc1Cl (configuration not stated)
1.2 | COCc1cc(C)nc(SCC(=O)Nc2ccc3[nH]c(=O)[nH]c3c2)c1C#N
-1.7 | CCOC(=O)c1c(C)oc2c(CN3CCN(C)CC3)c(Br)c(OC)c(O)c12
-1.7 | CCN1C(=O)C(=Cc2cccc(OC)c2Oc2ccc([N+](=O)[O-])cc2[N+](=O)[O-])SC1=S
0.7 | COC(=O)C1=C2c3[nH]c4ccccc4c3CCN2C(=O)CC1
-0.8 | CC(C)n1c(CCCO)nc2ccccc21
-1.5 | CCOCCn1c(=O)c2c(nc3n2CCN3c2ccc(CC)cc2)n(C)c1=O
-0.5 | O=C(CCS(=O)(=O)c1ccccc1)Nc1ccccc1-c1nc2ccccc2s1

Next part
STK33 inh | Molecule
-1.1 | COc1ccc(Nc2ncccc2C(=O)Nc2ccccc2)cc1
-0.1 | CCCn1c(CN(Cc2ccccc2)Cc2ccccc2)nc2c1c(=O)n(C)c(=O)n2C
-0.4 | O=C(NCCN1CCN(c2ccccc2)CC1)Nc1cccc(Br)c1
0.5 | Nc1nnc(C2CCCC2)s1
-0.5 | CN(CC(=O)Nc1cccc(C(F)(F)F)c1)Cc1ccccc1
-0.7 | COc1c(C)cc(Br)cc1C(=O)NCc1cccnc1
-0.6 | CC1(C)CCCC2=C1CC1C(=O)N(N)C(=O)C1C2 (configuration not stated)
-1.1 | CC(=O)N(CCC(Cc1ccccc1)c1ccco1)Cc1ccco1 (configuration not stated)
-0.3 | O=C(OCn1nnc2ccccc2c1=O)c1ccc2c(=O)n3c(nc2c1)CCC3
-0.7 | COc1ccc(-c2ccc(SCC(=O)N3CCN(c4ccccc4)CC3)nn2)cc1
9.4 | O=C(O)c1ccc(CNCc2cccc(Cl)c2)cc1
-1.8 | CC(C)CCn1c(=O)c2ccccc2c2ccccc2c1=O

The list goes on:
STK33 inh | Molecule
-2.1 | O=S(=O)(Cc1ccccc1)c1nc2ccccc2n1Cc1ccccn1
-1.1 | C(=C\c1ccco1)/C=N/n1cnnc1
-0.8 | Cc1ccc(S(=O)(=O)N2CCN(C(=O)NCc3ccc(C(=O)O)cc3)CC2)cc1
-1.9 | CC(C)C[C@@H](C(=O)NCc1ccco1)N1C(=O)N2CCc3c([nH]c4ccccc34)[C@@]2(C)C1=O
-0.7 | CC(C)(C)c1ccc(/C=C2\Oc3cc(OC(=O)N4CCOCC4)ccc3C2=O)cc1
-1.5 | Fc1ccc(-c2cc(C(F)(F)F)nc(-n3cccn3)n2)cc1
-0.3 | CCOc1cc2c3c(c1)C1(Nc4ccccc4S1)C(=O)N3C(C)(C)CC2C (configuration not stated)
-1.7 | Cn1c(SCC(=O)c2ccc(O)c(O)c2)nnc1-c1ccccc1
-2.0 | Cc1nn(C)c(C)c1CN(Cc1nc(-c2cc(F)ccc2F)oc1C)C1CC1
-0.1 | COc1ccc(-c2nnc(SCC(=O)Nc3cc(F)ccc3C)o2)cc1
-0.4 | CCN(CC)CC(=O)Nc1c(C)cc(C(C)(C)C)cc1C
2.0 | CCC(=O)C1CCCN(C(=O)CCc2nnc(-c3ccc(C(C)=O)s3)o2)C1 (configuration not stated)

(cont.)
STK33 inh | Molecule
4.9 | CC(=O)Nc1nc(-c2ccc3c(c2)CCN3S(C)(=O)=O)cs1
-1.5 | Cc1cc(C)cc(Nc2nc(-c3ccc(S(=O)(=O)N4CCCC4)cc3)cs2)c1
-2.8 | COc1ccc(CC(=O)OCC(=O)Nc2ccc(N3CCOCC3)cc2)cc1
-2.8 | CC1(C)CC(=O)c2cc(C(=O)N3CCCC(C)(C)C3)c(=O)n(-c3ccccc3)c2C1
-1.3 | CCOc1ccc(CCNC(=O)CCc2c(C)nc3ncnn3c2C)cc1OCC
-0.4 | N/C(CC(=O)Nc1ccc(F)cc1)=N\O
0.9 | CCCSc1nnc(NC(=O)CCc2ccccc2)s1
-2.0 | CC1CC(C)CN(S(=O)(=O)c2cc(C(=O)O)c(Cl)s2)C1 (configuration not stated)
-0.3 | CCCN1CCc2c(sc(NC(=O)c3ccc(S(=O)(=O)N4CCCC4)cc3)c2C(N)=O)C1
-0.7 | COc1ccccc1Cc1nc2ccccc2n1S(=O)(=O)c1ccc(Cl)cc1
-0.4 | COc1cccc(C(=O)Nc2ccc(-n3nncc3C(C)(C)C)cc2)c1
1.8 | CN=C1S/C(=C/c2cn(CC(=O)OC)c3ccccc23)C(=O)N1C

Carrying on:
STK33 inh | Molecule
-1.1 | COc1cccc(/C=N/NC(=O)CCCc2ccc(OC)c(C)c2)c1
-0.2 | O=C(NC1CCCCC1)N(Cc1ccc(F)cc1)Cc1nc2ccccc2c(=O)[nH]1
-0.2 | CCn1nnnc1NCc1cccc(Cl)c1
-0.8 | COc1ccc(NC(=O)CN(C)C(=O)c2cc(-c3cccs3)nn2-c2ccccc2)cc1
-1.0 | O=C(c1ccc(OC2CCN(Cc3cccc(OCCO)c3)CC2)cc1)N1CCCC1
-0.7 | COc1ccccc1N1CCN(C2CCCN(C(=O)CCC(C)=O)C2)CC1 (configuration not stated)
0.4 | O=C(NCC1CCCO1)c1ccc(CSCc2cccc(F)c2)o1 (configuration not stated)
0.3 | CC1CCc2nn(CC(=O)NC3CCCC(C)C3C)cc2C1 (configuration not stated)
-1.6 | CC(C)CNC(=S)NNC(=O)c1csc2c1CCC(C)C2 (configuration not stated)
-1.0 | CCC(=O)Nc1ccc(NC(=O)CSc2nnc(C(C)C)n2C)cc1
1.3 | C[C@H](NC(=O)[C@@H]1CSC2c3ccccc3C(=O)N21)C(=O)NC1CCCCC1 (some centres not stated)
-0.1 | Cc1cccc(-c2nnn(C/C(N)=N/O)n2)c1

(cont.)
STK33 inh | Molecule
-2.1 | CC(=O)Nc1ccc(C2C(=O)c3ccccc3C2=O)cc1
-0.5 | CCCS(=O)(=O)N1CCCC(C(=O)NCCCOC(C)C)C1 (configuration not stated)
1.6 | CCn1ccnc1CN1CCc2c([nH]c3ccccc23)C1C(C)(C)C (configuration not stated)
0.7 | Cc1cccc(N(CC(=O)N2CCOCC2)S(C)(=O)=O)c1
-1.8 | COc1ccc(CN(C(=O)CO/N=C/c2ccccc2)c2ccccc2C(=O)O)cc1
-1.4 | O=C1NN(c2ccccc2)C(=O)C2C3C=CC(C4CC34)C12 (configuration not stated)
-2.0 | O=C1CN(C(=O)CCN2CCOCC2)C(c2ccccc2)c2cc(Br)ccc2N1 (configuration not stated)
-1.5 | CC1CC(C)CN(C(=O)C2CCN(C(=O)Nc3ccccc3)CC2)C1 (configuration not stated)
-0.7 | COc1ccccc1CN1CCCC(CN(CCN(C)C)C(=O)c2ccc(C)cc2)C1 (configuration not stated)
-0.6 | O=C(COc1ccc(Br)cc1CO)Nc1ccc(F)cc1
-1.8 | CCOCCCNC(=O)C1(O)c2ccccc2NC(=O)N1c1ccc(Cl)c(Cl)c1 (configuration not stated)
-0.3 | O=C(c1ccc2oc(CCc3ccccc3)nc2c1)N1CCC(O)CC1

Other results:
STK33 inh | Molecule
0.1 | CCOC(=O)CSc1n[nH]c(NC(=O)CC)n1
-0.8 | O=C(NC1CC1)C1=C[C@@H](c2c[nH]c3ccccc23)C[C@@H](OCc2ccc(CO)cc2)O1
-2.1 | Cc1nc2c3ccccc3nc(NNC(=O)CCC(=O)NCCN3CCN(c4ccccc4)CC3)n2n1
-1.7 | O=C1CCN(c2ncccc2[N+](=O)[O-])CC1
-1.3 | CCOC(=O)c1cc(C(=O)OCC)c(=O)[nH]c1C
10 | N#Cc1ccc(Cn2ccnc2C(=O)Nc2ccccc2)cc1
0.8 | Cc1ccc(C2c3c(oc4ccccc4c3=O)C(=O)N2c2nncs2)cc1 (configuration not stated)
0.7 | COc1ccc(CCN(C(=O)c2cccc(F)c2)C2CC(=O)N(c3ccccc3)C2=O)cc1 (configuration not stated)
-0.7 | CCOC(=O)C1=C(C)NC(=O)NC1c1c(OC)ccc2ccccc12 (configuration not stated)
-0.5 | N#Cc1c2c(c(=S)n(-c3ccccc3)c1N)CCCC2
-1.2 | Cc1ccc2nc(SC(C)C(=O)N3CCOCC3)[nH]c2c1 (configuration not stated)
-0.2 | CC(=O)C1=C(C)NC(SCC(=O)Nc2nc3ccccc3s2)=C(C#N)C1c1ccc(Cl)cc1 (configuration not stated)

Among those listed so far, 10 have a furan ring, fused or not:
STK33 inh | Molecule
-1.6 | Clc1cccc(-c2ccc(/C=N/n3cnnc3)o2)c1
-0.6 | O=C(NC(=S)Nc1cc(S(=O)(=O)N2CCOCC2)ccc1N1CCOCC1)c1ccco1
-1.3 | Cc1ccc(NC(=S)NC(=O)c2ccc(Br)o2)c(C)c1
-0.8 | O=P(CCNCc1ccco1)(c1ccccc1)c1ccccc1
-0.1 | CCSc1oc(-c2ccco2)nc1S(=O)(=O)c1ccc(C)cc1
-1.7 | CCOC(=O)c1c(C)oc2c(CN3CCN(C)CC3)c(Br)c(OC)c(O)c12
-1.1 | CC(=O)N(CCC(Cc1ccccc1)c1ccco1)Cc1ccco1 (configuration not stated)
-1.1 | C(=C\c1ccco1)/C=N/n1cnnc1
-1.9 | CC(C)C[C@@H](C(=O)NCc1ccco1)N1C(=O)N2CCc3c([nH]c4ccccc34)[C@@]2(C)C1=O
0.4 | O=C(NCC1CCCO1)c1ccc(CSCc2cccc(F)c2)o1 (configuration not stated)

Next structures follow:
STK33 inh | Molecule
0.1 | O=C(COC(=O)CCSc1ccc(Cl)cc1)Nc1ccc(F)cc1
0.0 | COc1ccccc1N1CCN(C(=O)CN2C(=O)c3cccc4cccc(c34)C2=O)CC1
0.6 | CC(C)(C)OC(=O)N1CCC[C@H]1c1nnc(SCc2ccc(Cl)cc2)o1
1.6 | O=C(Nc1nccs1)c1cccc(NC(=O)C(F)(F)F)c1
0.3 | Cc1cc(C(=O)Nc2ccc(OCc3ccccc3)cc2)c(C)o1
-0.7 | Cc1[nH]n(C(C)(C)C)c(=O)c1Sc1ccc(Cl)cc1
-3.4 | Cc1ccc2c(c1)CCCN2S(=O)(=O)c1cccc(C(=O)Nc2ccccc2C(=O)O)c1
0.1 | CCOC(=O)[C@H]1[C@H]2COc3ccc(Br)cc3[C@@H]2N2C(=O)c3cc(F)c(F)cc3NC(=O)[C@@]12C
